PV pol inh: poliovirus RNA polymerase inhibition | 150,000 compounds, 0.66% hits | P03300 | % elongation, % (compound at 16.7 µg/mL) | poliovirus polymerase elongation, fluorescence polarization; hits give low values; in the data active = % elongation below about 90%; note: some results filed as inactive read as strong as hits
Target sequence (P03300 1749-2209 limits assumed): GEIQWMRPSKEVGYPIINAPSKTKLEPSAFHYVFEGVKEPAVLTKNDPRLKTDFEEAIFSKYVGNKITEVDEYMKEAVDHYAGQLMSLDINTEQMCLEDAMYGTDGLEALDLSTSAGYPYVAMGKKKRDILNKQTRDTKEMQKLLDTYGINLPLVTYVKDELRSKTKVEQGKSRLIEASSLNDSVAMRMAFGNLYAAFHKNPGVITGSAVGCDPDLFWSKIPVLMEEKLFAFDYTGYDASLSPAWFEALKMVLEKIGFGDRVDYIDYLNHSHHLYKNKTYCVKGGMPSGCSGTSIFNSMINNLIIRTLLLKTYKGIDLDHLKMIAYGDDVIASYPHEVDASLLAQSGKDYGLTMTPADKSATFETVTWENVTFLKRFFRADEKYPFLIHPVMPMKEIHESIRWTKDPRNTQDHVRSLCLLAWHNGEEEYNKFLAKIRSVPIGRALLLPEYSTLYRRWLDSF
PV pol inh intensity: recorded beside PV pol inh, whose call it bears; % elongation; measured here: total intensity read-out; formula for this scale not given here;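 total fluorescence in place of polarization; lower means less elongation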
Starred values were filed as active, the others as inactive. This is a subset; rates above refer to the full screens.

CCOc1cccc2sc(N(Cc3cccnc3)C(=O)c3ccco3)nc12 was read as PV pol inh 111 and PV pol inh intensity 115.
Screening O=C1CC(c2cccc(Cl)c2Cl)c2cc3c(cc2N1)OCCO3 (centres undefined) returned PV pol inh 110 and PV pol inh intensity 111.
Screening CCN(C(=O)c1cc2c(Cl)nc3ccc(C)cc3c2s1)c1cc(OC)ccc1OC returned PV pol inh 106 and PV pol inh intensity 104.
`CCc1ccccc1NC(=O)C(=O)c1cc(C)n(-c2ccccc2F)c1C` gave PV pol inh 114 and PV pol inh intensity 110.
For Cc1ccc(Cn2c(C)c(CNCc3ccc(OC(C)C)cc3)c(C(=O)O)c2C)cc1 the results were PV pol inh 105 and PV pol inh intensity 104.
`COc1cccc(NC(=O)CSc2nc(=O)n(Cc3ccccn3)c3c2CCC3)c1` gave PV pol inh 105 and PV pol inh intensity 108.
`Cc1ccc(Cl)cc1NC(=O)CC1Sc2ccccc2NC1=O` (centres undefined) gave PV pol inh 112 and PV pol inh intensity 115.
`CCN(CC)c1ccc(NS(=O)(=O)c2ccc(-c3coc(C)n3)cc2)c(C)c1` gave PV pol inh 104 and PV pol inh intensity 108.
Screening Cc1ccc2nc(NC(=O)CSc3nccn3-c3ccc(Cl)cc3)sc2c1 returned PV pol inh 108 and PV pol inh intensity 111.
CC1=C(C(=O)Nc2cccc(F)c2)C2(CCCCC2)OC1=O was read as PV pol inh 97 and PV pol inh intensity 104.
`CC1=C(c2ccc(F)cc2)S(=O)(=O)NC1=NCc1ccccc1F` gave PV pol inh 107 and PV pol inh intensity 114.
CCc1nn2c(=O)cc(COC(=O)c3cccs3)nc2s1 was read as PV pol inh 113 and PV pol inh intensity 111.
For CCOC(=O)c1cnc2cc(-c3ccc(Cl)cc3)nn2c1-c1ccccc1 the results were PV pol inh 106 and PV pol inh intensity 107.
CC1=C(C(=O)NCc2cccc(Cl)c2)C2(CCCCCC2)OC1=O was read as PV pol inh 104 and PV pol inh intensity 108.
For Cc1ccc(-n2c(=O)c3cccnc3n2CC(=O)NCc2ccc(Cl)cc2)cc1 the results were PV pol inh 105 and PV pol inh intensity 107.
`Cc1ccc(Cl)cc1NC(=O)CSCc1cnn(-c2ccccc2)c1-n1cccc1` gave PV pol inh 118 and PV pol inh intensity 112.
CCc1ccc(-n2cnc3cc(C(=O)NCc4ccc(C)cc4)ccc32)cc1 was read as PV pol inh 103 and PV pol inh intensity 107.
`COc1ccccc1CCNC(=O)c1cccn1-c1nnc(N2CCCCC2)s1` gave PV pol inh 105 and PV pol inh intensity 109.
COc1ccc(OC)c(Nc2cc(C(=O)NCc3ccccc3)c3ccccc3n2)c1 was read as PV pol inh 105 and PV pol inh intensity 105.
CC(NC(=O)c1ccc(Nc2nc3ccccc3n3nnnc23)cc1)c1ccccc1 (centres undefined) was read as PV pol inh 111 and PV pol inh intensity 135.

Entries listed so far that have a thiophene ring, fused or not, in the order listed:
Screening CCN(C(=O)c1cc2c(Cl)nc3ccc(C)cc3c2s1)c1cc(OC)ccc1OC returned PV pol inh 106 and PV pol inh intensity 104.
CCc1nn2c(=O)cc(COC(=O)c3cccs3)nc2s1 was read as PV pol inh 113 and PV pol inh intensity 111.

An excerpt from above in order of heavy-atom count, high to low:
COc1ccc(OC)c(Nc2cc(C(=O)NCc3ccccc3)c3ccccc3n2)c1 was read as PV pol inh 105 and PV pol inh intensity 105.
`Cc1ccc(Cl)cc1NC(=O)CSCc1cnn(-c2ccccc2)c1-n1cccc1` gave PV pol inh 118 and PV pol inh intensity 112.
CCc1ccc(-n2cnc3cc(C(=O)NCc4ccc(C)cc4)ccc32)cc1 was read as PV pol inh 103 and PV pol inh intensity 107.
Screening Cc1ccc2nc(NC(=O)CSc3nccn3-c3ccc(Cl)cc3)sc2c1 returned PV pol inh 108 and PV pol inh intensity 111.
`CC1=C(c2ccc(F)cc2)S(=O)(=O)NC1=NCc1ccccc1F` gave PV pol inh 107 and PV pol inh intensity 114.
`Cc1ccc(Cl)cc1NC(=O)CC1Sc2ccccc2NC1=O` (centres undefined) gave PV pol inh 112 and PV pol inh intensity 115.

Further structures follow.
For COc1ccccc1NC(=O)CSc1ncc(CO)n1Cc1ccc(F)cc1 the results were PV pol inh 107 and PV pol inh intensity 99.
`COc1ccc(-c2cc(C(=O)O)n(Cc3ccccc3)n2)cc1` gave PV pol inh 111 and PV pol inh intensity 111.
For CCCCNC(=O)Cn1c(=O)cc(C)c2c(C)nn(-c3cccc(Cl)c3C)c21 the results were PV pol inh 99 and PV pol inh intensity 107.
For COc1ccc2oc(=O)c(C(=O)NCCc3c(C)[nH]c4c(Cl)cccc34)cc2c1 the results were PV pol inh 106 and PV pol inh intensity 106.
For COc1ccc(Nc2nc(-c3ccccc3)c3cc(Br)ccc3n2)cc1 the results were PV pol inh 108 and PV pol inh intensity 108.
`Cc1ccc(CNc2nc3c(c(=O)n(C)c(=O)n3C)n2Cc2ccc(Cl)cc2)cc1` gave PV pol inh 113 and PV pol inh intensity 115.
Cc1ccccc1CN1CCC(CNC(=O)c2cc3ccc4cccnc4c3[nH]2)CC1 was read as PV pol inh 102 and PV pol inh intensity 103.
Screening COc1ccc(-c2cc(OC(=O)c3ccccc3Cl)c3c(C)oc(C)c3c(=O)c2)cc1OC returned PV pol inh 112 and PV pol inh intensity 126.
Screening CCN(CC)C(=O)CSc1nc2cc3c(cc2c(=O)n1Cc1ccc(C(=O)NCCc2ccc(OC)c(OC)c2)cc1)OCO3 returned PV pol inh 106 and PV pol inh intensity 105.
Screening CC(C)c1cnc2c(c1SCC(=O)Nc1ccc(OC(F)(F)F)cc1)c(=O)n(C)c(=O)n2C returned PV pol inh 109 and PV pol inh intensity 111.
For CC(C)c1ccc(NC(=O)Cn2c(=O)n(CC3CCC(C(=O)NCCc4ccccc4)CC3)c(=O)c3ccccc32)cc1 (centres undefined) the results were PV pol inh 109 and PV pol inh intensity 110.
Screening COc1ccc(CCNC(=O)c2nc(SCc3ccc(F)cc3)ncc2Cl)cc1OC returned PV pol inh 101 and PV pol inh intensity 106.
Screening Cc1ccc(OCC(=O)OCc2cc(=O)n3nc(-c4cccs4)sc3n2)cc1 returned PV pol inh 110 and PV pol inh intensity 116.
COc1ccc(NC(=O)c2ccc3c(c2)c(C)c(C)n3Cc2ccc(F)cc2)c(OC)c1 was read as PV pol inh 106 and PV pol inh intensity 108.
For Cc1cccc(N2CCN(C(=O)CN3C(=O)CSc4c3c(C)nn4-c3ccccc3)CC2)c1C the results were PV pol inh 107 and PV pol inh intensity 109.
Screening COc1ccccc1-c1noc(-c2ccc(N3CCN(c4ccccc4)CC3)c([N+](=O)[O-])c2)n1 returned PV pol inh 113 and PV pol inh intensity 120.
`CSc1ccc(CCNc2ncnc3onc(C)c23)cc1` gave PV pol inh 102 and PV pol inh intensity 95.
Screening CCOc1ccccc1CNC(=O)CCCn1ncn2c(cc3occc32)c1=O returned PV pol inh 104 and PV pol inh intensity 105.
`CCc1ccc(NC(=O)CC2C(=O)N(c3ccc(OC)cc3)C(=O)N2Cc2ccc(OC)cc2)cc1` (centres undefined) gave PV pol inh 107 and PV pol inh intensity 111.
CCOC(=O)c1ccc(NC(=O)CCc2c(C)nc3c(c(C)nn3C(C)(C)C)c2C)cc1 was read as PV pol inh 101 and PV pol inh intensity 105.
C=C(C)CSc1nc2sc3c(c2c(=O)n1CCCC)CCCC3 was read as PV pol inh 107 and PV pol inh intensity 112.
For Cc1cc(C)c(NC(=O)CN2C(=O)c3cccnc3Sc3ccccc32)c(C)c1 the results were PV pol inh 106 and PV pol inh intensity 99.
For CCOC(=O)c1cc2c(=O)n3ccccc3nc2n(Cc2ccco2)c1=NC(=O)c1cccc(C)c1 the results were PV pol inh 101 and PV pol inh intensity 107.
CC(C)c1ccc2c(c1)NC(c1ccncc1)=NC(c1cccs1)=N2 was read as PV pol inh 110 and PV pol inh intensity 101.
Screening COc1ccc(-c2nc3sc(CCNC(=O)C(=O)Nc4cc(F)ccc4F)c(C)n3n2)cc1 returned PV pol inh 108 and PV pol inh intensity 111.
Cc1cc(C)cc(NC2=C(c3ccccc3)C(=O)c3ccccc32)c1 was read as PV pol inh 106 and PV pol inh intensity 105.
`Cc1ccc(-c2nn(-c3ccc(F)cc3F)c3c2cnc2c(F)cccc23)cc1` gave PV pol inh 102 and PV pol inh intensity 106.
Screening Cc1oc2ncn(C)c(=O)c2c1C(=O)Nc1ccc(F)cc1 returned PV pol inh 111 and PV pol inh intensity 113.
CSc1nc(=O)c2c(n1C)NC(=O)CC2c1ccccc1OC(C)C (centres undefined) was read as PV pol inh 107 and PV pol inh intensity 109.
`COc1ccc(CCNC(=O)C2=C(C)C(=O)OC23CCCCC3)c(OC)c1OC` gave PV pol inh 104 and PV pol inh intensity 106.
`CC(=O)c1ccc(NS(=O)(=O)c2cccc(S(=O)(=O)c3ccc(Cl)cc3)c2)cc1` gave PV pol inh 97 and PV pol inh intensity 94.
For CN1C(=O)Cc2cc(S(=O)(=O)CCC(=O)Nc3cccc(C(F)(F)F)c3)ccc21 the results were PV pol inh 108 and PV pol inh intensity 112.
`O=C(COc1ccccc1Cl)N1CCN(CCc2ccncc2)CC1` gave PV pol inh 111 and PV pol inh intensity 112.
`O=C(Nc1ccccc1)N(Cc1c[nH]c2ccccc12)C1CCCCCC1` gave PV pol inh 108 and PV pol inh intensity 110.
`CCC1CN(C(=O)N2CCC(C(=O)N3CCN(c4ccccc4)CC3)CC2)c2ccccc2O1` (centres undefined) gave PV pol inh 107 and PV pol inh intensity 102.
CCCc1nn2c(=O)cc(COC(=O)c3cccs3)nc2s1 was read as PV pol inh 97 and PV pol inh intensity 98.
CCCCN(CC)CCNC(=O)Cn1cc2c(n1)-c1c(oc(C(=O)N3CCCC3)c1C)CC2 was read as PV pol inh 110 and PV pol inh intensity 112.
`COc1cccc(-n2c(SCC(=O)c3ccccc3)nc3c([nH]c4ccccc43)c2=O)c1` gave PV pol inh 110 and PV pol inh intensity 102.
`COc1ccccc1N1CCN(C(CNC(=O)C(=O)NCCN(C)C)c2cccnc2)CC1` (centres undefined) gave PV pol inh 114 and PV pol inh intensity 114.
`CCOCCCNC(=O)c1cc2c(=O)[nH]c3ccccc3c2n1C` gave PV pol inh 107 and PV pol inh intensity 99.
`CCc1ccc(NC(=O)CSc2nc(-c3ccccc3)no2)cc1` gave PV pol inh 113 and PV pol inh intensity 112.
Screening CCSC1=NC2(CCN(C(=O)NC3CCCCC3)CC2)N=C1c1ccc(C)c(C)c1 returned PV pol inh 111 and PV pol inh intensity 110.
O=C(O)c1c(Cl)nc2sccn12 was read as PV pol inh 100 and PV pol inh intensity 97.
`Cc1ccc(-c2nc3ccccc3o2)cc1NC(=O)Cc1ccc(Cl)cc1` gave PV pol inh 110 and PV pol inh intensity 111.
CCc1nn(CC(=O)N(C)Cc2ccccc2)c(=O)c2cc3sccc3n12 was read as PV pol inh 105 and PV pol inh intensity 106.
CC(=O)c1ccc(NC(=O)c2cccc(NC(=O)N3CCSc4ncccc43)c2)cc1 was read as PV pol inh 108 and PV pol inh intensity 113.
Screening CC(C)(C)C1CCc2c(sc3nc(-c4cc5cc(Cl)ccc5oc4=O)[nH]c(=O)c23)C1 (centres undefined) returned PV pol inh 110 and PV pol inh intensity 114.
For Cc1ccc(CNC(=O)c2cc(C3CC3)nc3c2c(C)nn3-c2cccc(Cl)c2C)cc1 the results were PV pol inh 109 and PV pol inh intensity 108.
Screening CCc1nn(CCCC(=O)N2CCN(c3ccc(OC)cc3)CC2)c(=O)c2cc3occc3n12 returned PV pol inh 106 and PV pol inh intensity 109.
For Cc1oc2ccc(O)c(CN3CCCC3)c2c1C(=O)Nc1cccc(Cl)c1C the results were PV pol inh 111 and PV pol inh intensity 103.
Screening COc1ccc(OC)c(Nc2sc(C(=O)c3ccccc3)c(N)c2S(=O)(=O)c2ccccc2)c1 returned PV pol inh 110 and PV pol inh intensity 111.
Cc1ccc(-n2cnc3cc(C(=O)NCc4ccc(F)cc4)ccc32)c(C)c1 was read as PV pol inh 108 and PV pol inh intensity 113.
`Cc1ccc(NC(=O)COc2ccc3oc4c(c3c2)CCCC4)cc1C` gave PV pol inh 107 and PV pol inh intensity 109.
Cc1cc2c(cc1NS(=O)(=O)c1ccc(F)cc1)n(C)c(=O)c(=O)n2C was read as PV pol inh 104 and PV pol inh intensity 109.
CCOc1ccc(-c2cc3c(=O)n(CC(=O)NCc4ccc(F)cc4)ccn3n2)cc1 was read as PV pol inh 104 and PV pol inh intensity 108.
CCCN(C(=O)COc1cc(=O)n(CC)c2ccccc12)c1ccc(C(C)C)cc1 was read as PV pol inh 99 and PV pol inh intensity 98.
For CCc1nnc(NC(=O)CSc2nc3c([nH]c4ccccc43)c(=O)n2-c2ccc(F)cc2)s1 the results were PV pol inh 106 and PV pol inh intensity 110.
`COc1cccc(-c2n[nH]c3c2C(c2cccc(O)c2)N(C)C3=O)c1` (centres undefined) gave PV pol inh 106 and PV pol inh intensity 107.
Nc1c(C(=O)NCc2ccc(Cl)cc2)sc2nc(-c3ccc(F)cc3)ccc12 was read as PV pol inh 102 and PV pol inh intensity 109.
For CC(=O)Nc1ccc(-c2nnc3n(Cc4ccc(C)cc4)c(=O)c4ccccc4n23)cc1 the results were PV pol inh 114 and PV pol inh intensity 102.

Retrieved one by one from above, 2 records:
CCCN(C(=O)COc1cc(=O)n(CC)c2ccccc12)c1ccc(C(C)C)cc1 was read as PV pol inh 99 and PV pol inh intensity 98.
Screening COc1ccc(OC)c(Nc2sc(C(=O)c3ccccc3)c(N)c2S(=O)(=O)c2ccccc2)c1 returned PV pol inh 110 and PV pol inh intensity 111.

Other records
CCC(=O)Nc1ccc(CC)cc1-c1nc2ccccc2n(CC(=O)c2ccc(OC)cc2)c1=O was read as PV pol inh 106 and PV pol inh intensity 113.
Screening CCOC(=O)CNC(=O)c1cc2c(=O)n3cccc(C)c3nc2s1 returned PV pol inh 104 and PV pol inh intensity 97.
Screening CN1CCSc2ccc(C(=O)NCc3ccccc3F)cc21 returned PV pol inh 109 and PV pol inh intensity 104.
For COc1cccc(C(=O)N2c3nc(-c4ccco4)nn3C3(CCCCC3)[C@@H]3CCCC[C@@H]32)c1 the results were PV pol inh 108 and PV pol inh intensity 94.
`Cc1ccc(CNC(=O)CCc2cn(Cc3ccc(C)cc3)c3ccccc23)cc1` gave PV pol inh 113 and PV pol inh intensity 105.
For CC(=O)c1cccc(-n2c(=O)c3c4c(sc3n(Cc3ccccc3Cl)c2=O)CN(C(C)=O)CC4)c1 the results were PV pol inh 102 and PV pol inh intensity 102.

Assay outcomes (PubChem)
